# Sfp inh: blocks B. subtilis Sfp PPTase activity; Q9F4F7; Biochemical Sfp PPTase activity, qHTS; Potency, µM, for inactives: max response, negative = inhibition, most hits filed as inhibitors; 310,000 compounds, 3.5% hits; active means well fitted inhibition curve with a large enough effect; inconclusive means small, poorly fitted or top-dose-only effect, or another doubt; inactive means no such curve, though single readings can be large or run the other way;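 further: the enzyme is Sfp with the accession as filed and its product quenches rhodamine fluorescence; potency means the concentration at half of the fitted maximal effect; 0% = enzyme reaction without inhibitor and -100% = no enzyme wells; top concentration of the series not given in the record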
#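 Compounds were incubated with enzyme (final 15 nM) for 15 min at room temperature before substrate addition started the reaction. Fluorescence at 525 nm excitation, 598 nm emission was recorded immediately and after 30 minutes.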
# TRPML1 agonist: activates the human TRPML1 channel; activation, % (concentration not given with the values); 410,000 compounds, 0.12% hits; Q9GZU1; TRPML1-expressing cells, Ca2+ dye fluorescence, FDSS; host cell line not named in the record; reference of the full effect not given here; AID 624414; in the data active = activation above about 50%; inconclusive = about 30% to 50%; inactive = below about 30%; further: 0% is about no effect; the text of the record puts the active cut at 80%
# Target sequence (Q9GZU1 whole entry, looked up): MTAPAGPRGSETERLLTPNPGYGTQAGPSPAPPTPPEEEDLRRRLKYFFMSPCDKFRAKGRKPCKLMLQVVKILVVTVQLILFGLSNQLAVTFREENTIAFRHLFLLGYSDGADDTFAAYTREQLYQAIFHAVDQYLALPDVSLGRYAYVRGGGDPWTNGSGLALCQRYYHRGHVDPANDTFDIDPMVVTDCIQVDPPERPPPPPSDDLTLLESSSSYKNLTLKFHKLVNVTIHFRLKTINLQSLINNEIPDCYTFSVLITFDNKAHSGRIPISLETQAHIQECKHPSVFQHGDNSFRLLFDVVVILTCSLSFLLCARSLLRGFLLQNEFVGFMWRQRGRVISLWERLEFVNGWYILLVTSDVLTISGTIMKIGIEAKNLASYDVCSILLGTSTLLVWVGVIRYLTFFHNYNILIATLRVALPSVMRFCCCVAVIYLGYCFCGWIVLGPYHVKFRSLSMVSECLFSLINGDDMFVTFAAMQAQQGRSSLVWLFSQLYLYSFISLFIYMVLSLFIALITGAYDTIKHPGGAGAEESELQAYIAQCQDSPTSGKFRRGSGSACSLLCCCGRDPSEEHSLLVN
#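 TRPML1-DL cells, Tet-induced overnight (~16 h, 37 degrees C), loaded 45-90 min at room temperature with Ca8 no-wash calcium dye plus quencher. FDSS fluorescence: 10 s baseline, compound pin-transfer, 110 s agonist read, then EC80 54-4 (4uM final) and 110 s antagonist read.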
# TRPV1 potentiator: human TRPV1 potentiation | TRPV1-expressing cells, Fluo-8 calcium influx, capsaicin EC20 potentiation; host cell line not named in the record; control for the full effect not named in the record | potentiation, % at 8.33 µM | 320,000 compounds, 0.02% hits | AID 540277; active means potentiation above 80%; inconclusive means 30% to 80%; inactive means below 30%; further: 0% is about no effect
#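 Cells expressing TRPV1 were dye-loaded with Fluo-8 and read kinetically: 10 s baseline, 3 min after compound (agonist portion), then 2 min after EC20 capsaicin (allosteric enhancer portion). Calcium-bound dye fluorescence at 480/520 nm.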
# ClpP mod: qHTS Assay for Activators of ClpP. AID 651965, 2013. purified B. subtilis ClpP, FRET peptide cleavage, 20 min. ATP-dependent Clp protease proteolytic subunit (Bacillus subtilis (strain 168)), P80244. 340,000 compounds, 1.9% hits. Potency, µM (titrated, usually from 57.5 µM), without a hit: at the highest dose activity change, negative = active; active = well fitted falling curve with a large enough effect; inconclusive = small, poorly fitted or top-dose-only effect; inactive = no such curve, though single readings can be large or run the other way; further: potency means the concentration at half of the fitted maximal effect; the source files actives as falling curves though it sought activators and does not explain the sign; nearly all actives have a fitted effect of over 65% in size; many hits overshoot -100%
# Target sequence (P80244 whole entry, looked up): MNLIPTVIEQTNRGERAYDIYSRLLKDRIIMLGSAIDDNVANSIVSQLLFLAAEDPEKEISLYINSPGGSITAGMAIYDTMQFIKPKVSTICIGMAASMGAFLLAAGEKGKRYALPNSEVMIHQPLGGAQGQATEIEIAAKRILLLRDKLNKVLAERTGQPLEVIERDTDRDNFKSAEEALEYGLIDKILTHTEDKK
#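 Purified B. subtilis ClpP, 10 microg/mL final in Tris/HCl pH8 with KCl, BSA, glycerol and Tween-20, cleaved an Abz/nitrotyrosine-quenched decapeptide. Fluorescence (ex 320, em 430) was read at 0 and 20 min at room temperature. Delta was normalized to 5.8 microM ADEP and DMSO/no-enzyme controls.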
# Menin-MLL FL inh: menin-MLL binding inhibition, fluorescein peptide; AID 1766; FP activity change, % at 61.4 µM; 290,000 tested, under 10 active; Fluorescence polarization, fluorescein-MLL peptide displacement from menin; inconclusive = falling polarisation curve, or a change in total fluorescence; inactive = total fluorescence flat and polarisation flat or rising; no compound was filed as active; the % refers to the polarisation; negative = inhibition;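 further: % of control where 0% means no effect; inhibitors lower the polarisation; unlabelled MLL peptide was the positive control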
# PINK1 modulator: modulators of PINK1 expression | 410,000 compounds, 0.2% hits | Potency, µM (titrated, usually from 76.6 µM), without a hit: at the highest dose activation (PINK1 increase), hits mostly activators | PINK1 immunofluorescence, high-content cytometry, 24 h; active = well fitted activation curve with a large enough effect; inconclusive = small, poorly fitted or top-dose-only effect; inactive = flat fitted curve, though single readings scatter; cell line not stated here;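 further: potency means the concentration at half of the fitted maximal effect; % of control where 0% means no effect; nearly all actives have a fitted effect of over 65% in size; a mitochondrial uncoupler was the plate control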
#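 PINK1 protein, normally rapidly degraded, was detected by immunofluorescence after 24 hour compound treatment of a stable cell line. Titration data (5 concentrations) came from laser-scanning cytometry, with CCCP-treated wells as controls.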
# TRPML1 inh: human mucolipin-1 channel inhibition; Q9GZU1; activity change, negative = inhibition, % (test concentration not listed); AID 624415; TRPML1-inducible cells, Ca2+ dye fluorescence, FDSS; active compounds read low; inhibition of EC80 agonist-evoked calcium signal; 390,000 compounds, 0.02% hits; in the data active means activity change below about -50%; inconclusive means about -30% to -50%; inactive means above about -30%;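 further: stimulus is agonist 54-4 at its EC80 concentration; on the % scale 0 is the no-effect control and ±100 the full control effect; compound concentration not given in the record; the text of the record puts the active cut at -80%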
#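 Tet-induced TRPML1-DL cells loaded with Ca8 no-wash calcium dye were read kinetically on FDSS. Compound addition was followed by EC80 agonist 54-4 (4 uM final); inhibition was read over 110 s.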
# * = called active by the depositor; ? = inconclusive; . = no result given; & = joins results of further samples; [ ] = dose if it differs, or a comment. Compounds as they come; about 4.4% have a hit in one of these screens.
SMILES	Sfp inh	TRPML1 agonist	TRPV1 potentiator	ClpP mod	Menin-MLL FL inh	PINK1 modulator	TRPML1 inh
CC(C)c1ccc(NC2CCCN(C(=O)c3cnc4ccccn4c3=O)C2)cc1 (stereo not given)	0.0%	0.4	-2.4	-8.7%	.	0.2%	7.6
COC(=O)Nc1ccc(SCC(=O)c2cccc([N+](=O)[O-])c2)cc1	-14.9%	-0.6	0.5	-0.8%	-2.9	5.0%	-12.7
CCCOc1ccc(N2C(=O)CC(S/C(N)=N/N=C(\C)c3cccs3)C2=O)cc1 (stereo not given)	34.6%[activator]	2.7	13.9	-1.0%	3.6	-5.4%[38.3 µM]	-4.8
O=C(Nc1ccc(F)cc1F)N1CCCN(c2ccc(C(F)(F)F)cn2)CC1	7.8%	-0.4	-26.7	-1.5%	2.2	-0.9%	-1.1
O=[N+]([O-])c1ccc(-c2cnc(NO)nc2)cc1	56.2µM*	-0.3	7.6	1.3%	1.6	-1.5%	0.7
Cc1ccc(S(=O)(=O)CCN2CCC(n3cccc3)CC2)cc1	-0.9%	2.5	0.8	.	0.5	-0.2%	-8.5
COc1ccc(-c2noc(-c3ccoc3C)n2)cc1OC	11.5%	1.0	-3.1	-3.5%	2.1	3.0%	41.2
CCc1ccccc1N1CC(c2nnc(NC(=O)c3ccco3)s2)CC1=O (stereo not given)	.	-0.5	.	-14.1%	.	-1.4%	-13.0
COc1ccc(C)cc1NC(=O)N(C(C)C)C1CCN(C(C)=O)CC1	.	-0.5	.	-1.1%	.	-1.0%	-9.9
CCn1c(SCC(=O)N2CCCc3ccccc32)nc2ccccc2c1=O	-5.0%	5.9	-21.6	-0.3%	3.6	-5.0%	-5.4
O=C(CSc1nccn1-c1ccc(F)cc1)NCc1ccc2c(c1)OCO2	8.4%	2.5	-11.2	-1.8%	9.3	-2.8%	18.6
Cc1cc(Nc2cccc(Cl)c2)nc(N2CCOCC2)n1	0.7%	-0.5	-8.4	-3.6%	0.9	-0.8%	-5.9
Cc1ccc(/C=C/C(=O)Nc2ccc(O)c3c(=O)cc(-c4ccccc4Cl)oc23)cc1	-7.5%&1.2%	0.9&-1.0	7.8	1.0%	-1.3&3.1	-0.1%	6.2&-1.0
CCOC(=O)c1nnn(-c2nonc2N)c1-c1ccc(OCC)cc1	11.1%	0.4	4.5	-1.5%	2.4	-2.2%	2.1
Cc1ccc(C)c(NC(=O)c2cc(S(=O)(=O)N3CCCc4ccccc43)ccc2F)c1	.	1.1	.	-6.0%	.	1.7%	68.3
CCc1ccc(OC(C)c2nc(-c3ccc(-n4cccc4)cc3)no2)cc1 (stereo not given)	.	0.9	.	?	.	1.2%	17.3
O=C(CCNC(=O)C1CCN(S(=O)(=O)c2ccc(F)cc2)CC1)NCCc1ccc(Cl)cc1	5.3%	3.2	17.4	-3.1%	.	0.0%	15.7
COc1ccc(NC(=O)CSc2nc3[nH]c(=O)cc(O)c3s2)cc1OC	.	-0.1	6.4	-6.6%	.	2.0%	-0.2
Cc1cc(C)n(-c2nc3ccccc3n3c(C)nnc23)n1	3.6%	0.8	15.9	.	7.7	-1.9%	14.9
COc1ccc(C2CC(=O)N3CN(c4ccccc4F)CSC3=C2C#N)cc1OC (stereo not given)	8.91µM*	0.1	8.7	2.6%	4.1	-0.9%	13.9
C=CCNC(=O)CSc1nc2sccc2c(=O)n1-c1ccccc1	-7.8%	-0.2	1.1	.	6.5	0.0%	-17.2
CCN(CC)C(=O)COc1coc(CN2CCN(Cc3ccccc3)CC2)cc1=O	12.6%	-0.3	7.7	1.8%	.	-0.5%	15.1
COc1ccc(N2C(=O)C(OC(C)=O)C2c2ccc(C)cc2)cc1 (stereo not given)	5.9%	1.2	-2.5	3.7%	1.7	10.7%	11.9
COc1ccc(C(=O)C2CCCN(C(=O)c3ccnn3C)C2)cc1OC (stereo not given)	7.0%	-1.1	-10.1	-4.0%	4.6	-0.9%	6.4
CC(=O)Nc1cccc(-c2nc3ccc(NC(C)=O)cc3[nH]2)c1	-1.6%	0.3	7.1	6.8%	2.1	0.7%	-2.3
Cc1ccccc1CN(c1ccc(C(=O)N2CCCC2)cc1)S(C)(=O)=O	23.5%	-0.5	12.8	0.1%	2.8	.	-7.8
O=C(/C=C/C=C/c1ccccc1)c1ccco1	?	-0.6	-7.3	-1.2%	2.4	4.2%	10.8
O=C(NCCCN1CCOCC1)c1cc2cc(Br)ccc2oc1=O	-6.7%	-0.3	1.4	-5.2%	-0.8	0.8%	-22.1
Cc1cc(Nc2ccccc2)n2nc(C)c(-c3ccccc3)c2n1	-1.3%	2.5	?	?	9.4	2.6%	36.1
CCN(CCCNC(=O)c1cc2cc3cc(C)ccc3nc2s1)c1cccc(C)c1	.	0.8	.	0.1%	.	2.4%	-22.5
Cc1ccc(-c2nc3ccccc3s2)cc1NC(=O)c1cc(-n2cnnc2)ccc1Cl	?	0.5	-2.3	?	-0.3	3.55µM*	-10.2
CCc1ccc(N2CC(C(=O)Nc3ccc(F)cc3)CC2=O)cc1 (stereo not given)	1.3%	-0.4	-19.6	.	0.8	-0.1%	8.1
CCOC(=O)C1CCN(S(=O)(=O)CCNC(=O)c2cccc(OC)c2)CC1	.	-0.4	27.8	?	.	1.2%	4.7
N/C(=N\O)c1cccc(CS(=O)(=O)c2ccccn2)c1	-0.9%	0.3	-1.2	0.0%	-2.3	-0.7%	-2.4
CSCc1nc2sc(C(=O)Nc3nc(C)cs3)c(C)c2c(=O)[nH]1	-13.3%	-0.8	-5.6	-4.5%	?	1.1%	0.4
OCCC1CN(Cc2ccc3nsnc3c2)CCN1C1CCCC1 (stereo not given)	15.2%	0.5	2.8	0.4%	-0.3	1.9%	-2.2
CCOc1ccc(-c2nnc(SCC(=O)N3CCCC3)o2)cc1	13.4%	0.1	12.8	.	0.2	0.8%	-16.1
CC(=O)Nc1ccc(S(=O)(=O)NCc2ccc(C(=O)NCc3ccc4c(c3)OCO4)cc2)cc1	15.3%	1.1	6.0	-0.2%	-2.6	-0.2%	-0.2
CCOc1ccc2nc(NC(=S)NCc3ccccc3)sc2c1	?	0.9	0.5	?	1.2	?	-6.2
Cc1cc(C)cc(NC(=O)c2cc(C)nc3ccccc23)c1	14.1%	1.3	22.8	0.3%	-1.4	7.8%	7.0
COc1ccc(C(=O)N/C(=C\c2cn(C)c3ccccc23)C(=O)OCCN(C)C)cc1	12.7%	0.3	9.6	-1.1%	3.8	-0.6%	55.1
O=C(Nc1ccccc1)C(=O)c1c[nH]c2ccccc12	8.9%	-0.3	1.9	0.1%	7.0	3.5%	-5.6
CCOC(=O)/C=C1\SCC(=O)N1CC(=O)Nc1cccc(F)c1	15.5%	-0.9	6.6	2.8%	4.4	-0.6%	-6.8
COc1cccc(C2=NN(C(C)=O)C(c3cn(-c4ccccc4)nc3-c3cccs3)C2)c1 (stereo not given)	.	0.7	.	-12.4%	.	-0.5%	-6.1
Cc1cccc(OCC(=O)NC2CCCC2)c1	-2.7%	0.5	13.0	.	-3.7	1.4%	2.4
Cc1cc(O)c(C(C)C)cc1N=Cc1ccccc1O	14.1µM*	0.2	-2.1	-2.7%	-1.7	0.5%	14.7
O=C(NC1=NCCS1)c1ccc2c(c1)C(=O)N(Cc1ccco1)C2=O	8.9%	-0.5	-13.8	-1.0%	-0.2	2.0%[38.3 µM]	-8.6
Nc1nonc1-n1nnc(C(=O)N/N=C/c2cccc(F)c2)c1CN1CCCC1	.	-0.3	.	-1.4%	.	-0.9%	-5.0
COCc1cc(C)nc(SCc2nc3ccccc3c(=O)[nH]2)c1C#N	10.0%	2.2	-1.3	.	3.8	17.5%	21.2
COc1ccc(S(=O)(=O)N2CCOCC2)cc1NC(=O)CSc1nc(C)c(C)c(C)n1	.	-0.7	.	.	.	0.1%	-3.1
CCOC(=O)c1c(C)n(C)c2ccc(OCC(O)CN(CC)CC)cc12 (stereo not given)	-20.5%	-1.3	3.2	-0.2%	-6.7	-1.5%	1.6
COc1ccc(C(C(=O)NCC2CCCO2)N(C(=O)CNC(=O)c2ccco2)c2ccc(C)c(C)c2)cc1OC (stereo not given)	9.3%	-0.7	7.0	-0.2%	.	0.9%	-0.5
N#Cc1c(NC(=O)CSC2=NCCS2)sc2c1CCCC2	?	2.0	3.8	-4.9%	4.7	-0.1%	-16.6
C=C(C)CSc1nc(N)c2c3c(sc2n1)CCC3	16.8%	0.3	9.9	12.6µM*	1.6	?	8.4
CC(=O)Nc1ccc(NC(=O)COC(=O)c2c(-c3ccccc3)noc2C)cc1	.	0.6	-15.4	-0.5%	.	-0.9%	-1.7
CCOc1ccc(CN2CCNC(=O)C2CC(=O)NCCCC2CCCC2)cc1 (stereo not given)	0.8%	-0.7	4.7	0.5%	4.7	0.1%	6.6
CCN(CC)c1ncc(C)c(=O)[nH]1	12.8%	0.6	2.6	-1.7%	0.7	-1.1%	-3.7
Clc1ccc(-n2ncc3c(NCc4ccco4)ncnc32)cc1	17.6%	0.6	1.7	?	9.6	.	5.1
COC(=O)C1=C(N)n2c(s/c(=C\c3cccnc3)c2=O)=C(C(=O)OC)C1c1cccnc1 (stereo not given)	-17.1%	.	7.0	.	5.2	.	.
O=C(Nc1ccccc1F)c1ccc(Cn2nc(N3CCN(c4ccccc4)CC3)ccc2=O)o1	.	2.4	.	0.0%	.	2.4%	20.8

# Continued.
SMILES	Sfp inh	TRPML1 agonist	TRPV1 potentiator	ClpP mod	Menin-MLL FL inh	PINK1 modulator	TRPML1 inh
COc1ccc(C(=O)C[n+]2cc(-c3ccc(OC)cc3)n3c2CCCC3)cc1	9.2%&8.0%	-0.8&0.3	18.1&-8.1	-1.4%	-6.1&-4.8	2.0%&6.6%	-0.5&5.4
Nc1ccn([C@@H]2O[C@H](C(=O)NCCCN3CCCC3=O)[C@@H](O)[C@H]2O)c(=O)n1	.	0.0	.	0.6%	.	2.2%	.
NC[C@H](Cc1ccccc1)NCCc1cc(C(F)(F)F)cc(C(F)(F)F)c1	.	0.1	.	-2.0%	.	-1.3%	6.8
Cc1cc(NC(=O)CS(=O)(=O)c2cn(Cc3ccc(F)cc3)c3ccccc23)no1	7.4%	-0.1	.	-0.5%	4.0	5.8%	-12.5

# Source: PubChem BioAssay
